RGS16-Gao: modulates binding between human RGS16 and Galphao. O15492+P09471. bead-based flow cytometry RGS16-Galphao binding, fluorescence; actives lie on both sides. binding response (% of control), % at 10 µM. actives 0.38% (n = 220,000);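 active means below 25% or above 175%, edge rows of some plates excepted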;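 further: Galphao activated by GDP with aluminum fluoride before binding; 100% = wells without compound and 0% = beads without RGS; some results beyond the cut were filed as inactive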
HSV augment: increases HSV replication in cells; maximum fold increase; HSV replication augmentation in cells, fold increase; actives 0.005% (n = 220,000);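 active means peak rise of 1.5-fold or more in the series; inconclusive means self-fluorescent or not available for retest; tested in PC3 cells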;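 further: first round at 10 µM; read as green reporter fluorescence; hits show the peak of a series up to 25 µM; 1 = signal of infected wells without compound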
GALR2 ag: agonists of human galanin receptor 2 (GALR2); GALR2-expressing cells, agonist activation read-out; activation, %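 (tested at 5 µM)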; actives 0.48% (n = 140,000);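 active means above mean plus 3 SD of all compounds, about 5% in these data, not always enough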;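 further: 0% = vehicle buffer wells and 100% = reference agonist at full effect; tested in CHO reporter cells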
Insulin prom inh: TRM-6 insulin promoter activity inhibition | TRM-6 cells (human fetal islet line), insulin promoter-eGFP reporter, imaging; reporter expression induced with tamoxifen | inhibition, % at 2 µM | actives 0.9% (n = 130,000);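 active means inhibition above the mean plus 3 SD, with well images judged a real hit on visual review, cut at about 60% in these data, passing the limit was not always enough; inconclusive means inhibition over the cutoff but images rejected on review; inactive means inhibition not above the cutoff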
PKD1 inh: blocks activity of human protein kinase D1 | Q15139 | PKD1 kinase fluorescence polarization assay | inhibition, %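 (about 10 µM by stock and volumes)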 | actives 0.056% (n = 200,000);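 active means inhibition of 50% or more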;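 further: controls were vehicle for no effect and a reference inhibitor for full effect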
Target sequence (Q15139 whole entry, looked up): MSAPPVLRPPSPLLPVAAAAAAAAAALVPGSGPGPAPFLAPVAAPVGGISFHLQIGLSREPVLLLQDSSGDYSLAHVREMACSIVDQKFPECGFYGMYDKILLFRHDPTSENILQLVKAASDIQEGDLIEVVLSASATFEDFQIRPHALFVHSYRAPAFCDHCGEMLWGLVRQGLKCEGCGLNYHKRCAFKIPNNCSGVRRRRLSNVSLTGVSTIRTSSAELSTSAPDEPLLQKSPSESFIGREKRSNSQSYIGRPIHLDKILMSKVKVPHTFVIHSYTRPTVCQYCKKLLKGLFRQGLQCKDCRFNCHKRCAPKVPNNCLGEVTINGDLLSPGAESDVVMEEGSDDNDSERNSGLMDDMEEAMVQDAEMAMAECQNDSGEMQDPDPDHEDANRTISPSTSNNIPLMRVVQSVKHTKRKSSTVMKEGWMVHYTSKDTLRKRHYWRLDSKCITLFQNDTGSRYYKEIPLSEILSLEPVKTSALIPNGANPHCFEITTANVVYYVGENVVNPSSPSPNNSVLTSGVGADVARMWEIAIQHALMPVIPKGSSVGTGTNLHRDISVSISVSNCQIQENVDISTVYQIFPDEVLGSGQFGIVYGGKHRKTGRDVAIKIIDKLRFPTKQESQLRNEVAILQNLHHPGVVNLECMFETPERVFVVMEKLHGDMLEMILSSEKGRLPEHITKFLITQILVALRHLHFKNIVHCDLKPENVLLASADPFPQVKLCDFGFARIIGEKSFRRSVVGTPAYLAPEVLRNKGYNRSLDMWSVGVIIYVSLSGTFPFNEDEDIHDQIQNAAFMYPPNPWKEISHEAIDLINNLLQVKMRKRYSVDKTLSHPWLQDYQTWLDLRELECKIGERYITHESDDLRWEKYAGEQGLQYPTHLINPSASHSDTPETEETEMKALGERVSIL
Insulin prom inh cell count: also measured in Insulin prom inh; calls as there; normalized cell count, %; measured here: cell count, toxicity; reference of the scale not given here;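 cells exposed to compound for 48 h; stained nuclei by imaging scaled within each plate; lower means fewer cells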
HSV augment primary fold: second read-out of HSV augment, no call of its own (marks repeat the call); fold increase; compound at 10 µM; measured here: primary screen fold increase 10 uM; tested in PC3 cells;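 GFP signal in the first replicate; 1 = infected wells without compound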
* hit, by the source's call; i = inactive; ? = inconclusive; nt = not tested or not shown.

smiles	HSV augment	RGS16-Gao	Insulin prom inh	HSV augment primary fold	Insulin prom inh cell count	PKD1 inh	GALR2 ag
COc1cccc(NC(=O)CSc2nc3ccccc3c(=O)n2CCCC(=O)NCCCN2CCOCC2)c1	i	98.0	-27.3	0.96	80.5	4.8	nt
O=C(CNC(=S)N(CCCN1CCOCC1)Cc1cccs1)N1CCOCC1	i	105.1	40.6	1.05	59.1	-3.8	-0.1
CC1(C)CC(=O)C(C=NCCCN2CCCC2=O)=C(O)C1	i	101.4	-54.5	0.82	78.2	-1.6	-0.7
Cc1cccc(C(=O)Oc2ccccc2C(=O)N2CCOCC2)c1	i	100.4	nt	1	nt	nt	nt
COC(=O)Cc1cc(=O)n2[nH]c(C)nc2n1	i	104.7	40.6	0.87	139.8	-7.2	-1.7
CCCc1nnc(NC(=O)CCC(=O)O)s1	i	95.0	nt	0.92	nt	4.7	-3.5
COc1ccccc1-c1cc(C(=O)NCc2ccco2)no1	i	77.8	nt	0.86	nt	-0.5	-0.4
CCOC(=O)C(Sc1nnc2c3ccccc3n(CC)c2n1)C(=O)OCC	i	83.3	-17.2	0.67	114.4	-3.4	0.0
Cc1ncc([N+](=O)[O-])n1Cc1ccccc1	nt	98.9	0.0	nt	79.7	1.9	-1.6
CCOC(=O)N1CCN(Cc2nc(N)nc(Nc3ccc(OC)cc3)n2)CC1	i	99.1	-115.4	0.95	155.3	-4.4	-0.9
O=C(NCCCCc1ccccc1)C12CN(Cc3ccccc3)CC1C(c1ccc([N+](=O)[O-])cc1)=NO2 (stereo not given)	i	82.3	-18.2	0.95	67.5	-0.1	-1.0
Cc1cc(-c2ccccc2)n2nc(C)c(-c3ccccc3)c2n1	i	105.8	-8.1	0.91	46.3	-6.9	-0.8
O=Cc1cccc(OC(=O)c2ccc(Cl)cc2Cl)c1	i	101.0	-57.1	0.95	135.6	-0.9	-0.4
O=C(CNc1ccc2c(c1)OCO2)N/N=C\c1cn(Cc2ccccc2)c2ccccc12	i	113.9	53.3	0.92	183.5	-1.9	-3.9
COC(=O)C1=C(C)NC2=C(C(=O)CCC2)C1c1ccc(-c2ccsc2C(=O)OC)o1 (stereo not given)	i	101.6	nt	1.04	nt	nt	nt
COc1cc(/C=N/NC(=O)CSc2n[nH]c(=O)[nH]c2=O)cc(OC)c1O	i	100.2	41.7	1.02	102.4	0.1	nt
Cc1ccc(S(=O)(=O)c2nc(NCCCn3ccnc3)sc2Cl)cc1	i	101.8	nt	0.99	nt	-5.7	-1.2
CC(C)NC(=O)COc1ccc(OCc2ccccc2)cc1	i	102.2	16.7	0.98	118.9	-0.4	nt
O=C(NCc1csc(-c2cccs2)n1)c1cccc(Cl)c1	i	104.7	nt	0.91	nt	nt	nt
CCOC(=O)C1CCN(S(=O)(=O)c2cccc(-c3cn4cccnc4n3)c2)CC1	i	106.4	-282.4	0.97	91.7	-6.8	-0.9
NCCCC[C@H]1CNC(=O)C(=O)N1CCc1cccc2ccccc12	i	97.4	nt	0.87	nt	nt	nt
CS(=O)(=O)N(Cc1ccc(C(=O)NCc2ccco2)cc1)c1ccccc1	i	100.2	12.9	0.96	72.5	4.6	-4.2
CC(C)COCC1CC2(CC(C)(c3csc(N)n3)OC2=O)C(=O)O1 (stereo not given)	i	102.3	-16.1	1.04	179.0	-8.6	-1.8
O=C(c1ccco1)N1CCN(C2=NS(=O)(=O)c3ccccc32)CC1	i	96.0	-44.4	0.96	139.0	-6.2	-1.1
Cc1[nH]c(=O)c(C(=O)c2cc(Cl)ccc2O)cc1C(=O)O	i	100.7	nt	0.81	nt	-0.2	nt
COc1ccc(-n2c(C)cc(/C=C3/SC(=S)N(C)C3=O)c2C)cc1	?	-2.3*	-294.4	nt	149.8	4.5	-1.4
C#CCOC(=O)CCC(=O)Nc1cc(OC)nc(OC)n1	i	99.2	nt	1.03	nt	0.2	-3.2
CCc1nnc(NC(=O)c2ccc3ncsc3c2)s1	i	105.5	nt	0.94	nt	nt	nt
COc1ccc(-c2ccc(-c3nc4c(c(=O)[nH]c(=O)n4Cc4ccccc4)n3C)o2)c([N+](=O)[O-])c1	i	55.9	-7.4	1.04	92.1	-18.0	0.9
CSC1=C(C#N)C(c2ccc(C)s2)CC(=O)N1 (stereo not given)	i	96.6	nt	0.93	nt	-12.7	-2.3

Single values from the entries so far.
Result for `O=C(c1ccco1)N1CCN(C2=NS(=O)(=O)c3ccccc32)CC1` under PKD1 inh: -6.2
Result for `COc1ccc(-c2ccc(-c3nc4c(c(=O)[nH]c(=O)n4Cc4ccccc4)n3C)o2)c([N+](=O)[O-])c1` under GALR2 ag: 0.9

Shown field by field: two of the compounds above.
Cc1ccc(S(=O)(=O)c2nc(NCCCn3ccnc3)sc2Cl)cc1
  HSV augment: i	RGS16-Gao: 101.8	Insulin prom inh: nt	HSV augment primary fold: 0.99	Insulin prom inh cell count: nt	PKD1 inh: -5.7	GALR2 ag: -1.2
NCCCC[C@H]1CNC(=O)C(=O)N1CCc1cccc2ccccc12
  HSV augment: i	RGS16-Gao: 97.4	Insulin prom inh: nt	HSV augment primary fold: 0.87	Insulin prom inh cell count: nt	PKD1 inh: nt	GALR2 ag: nt

(more compounds)
smiles	HSV augment	RGS16-Gao	Insulin prom inh	HSV augment primary fold	Insulin prom inh cell count	PKD1 inh	GALR2 ag
CCCn1c(=O)c2ccccc2n2c(SCc3cc(=O)oc4ccc5ccccc5c34)nnc12	i	110.0	34.5	0.99	154.6	4.4	0.0
O=C(/C=C/Sc1ccccc1)c1ccc(Cl)cc1	i	93.9	6.7	0.65	100.0	-4.5	-0.8
CC(C)c1nc2oc3c(NCCO)ncnc3c2c2c1COC(C)(C)C2	i	95.8	nt	0.99	nt	nt	nt
COc1ccc(CN2C(=O)N(c3ccc(OC)cc3)C(=O)C2CC(=O)Nc2ccccc2)cc1 (stereo not given)	i	99.3	nt	0.885	nt	-8.1	nt
CSc1ncc(Cl)c(C(=O)Nc2cccc3ccccc23)n1	i	95.4	nt	1.08	nt	-5.9	0.6
CCOCCn1c(CN2CCC(C)CC2)nc2c1c(=O)n(C)c(=O)n2C	i	nt	-180.9	1.04	60.9	-11.1	-1.4
CC(=O)c1c(C)n([O-])c2cc(C)ccc2[n+]1=O	i	101.8	14.3	1.05	138.2	3.8	-1.1
CCOc1ccc(-n2c(SCC(=O)NC(C)CC)nc3n[nH]c(C)c3c2=N)cc1 (stereo not given)	i	101.7	nt	1.01	nt	4.1	-0.8
COCCCNC(=O)c1ccc(C(=O)NCCCOC)cc1	i	103.5	-45.5	0.98	119.7	13.1	0.1
O=C(NS(=O)(=O)Oc1ccc(Cl)cc1)OC[C@@H]1CCCN2CCCC[C@H]12	i	102.1	23.3	0.95	147.6	6.4	-0.9
O=C(COc1ccc(Cl)cc1Cl)Nc1nc2n(n1)C(c1ccccc1)CC(=O)N2 (stereo not given)	i	61.9	nt	0.64	nt	-1.0	-0.5
Cc1cc(C)c(NC(=O)CN2C(=O)NC3(CCCCC3)C2=O)c(C)c1	i	98.7	6.5	0.9	99.5	3.6	-2.5
O=C(NNC(=O)c1cccs1)c1ccc(Br)o1	i	110.5	-46.1	0.98	145.0	-6.9	-0.4
O=S(=O)(c1ccccc1)N1c2cc(Cl)ccc2Oc2nc3ccccc3nc21	i	97.8	-90.7	0.86	102.8	-6.9	-0.2
Brc1ccc2ncnc(NCc3ccccc3)c2c1	i	95.7	nt	0.82	nt	-13.9	-1.7
Cc1ccc(-n2c(C)cc(-c3csc(N)n3)c2C)cc1	i	110.0	-40.0	1.01	44.3	-7.2	-1.3
CC(=O)Cc1nsc(NC(=O)c2ccc(-c3cc(Cl)ccc3Cl)o2)n1	i	100.1	9.5	0.75	90.4	-5.4	nt
COc1ccc(C2N3CC4(C)CN2CC(C)(C3)C4O)cc1OC (stereo not given)	i	97.2	48.4	0.997	143.2	-10.7	-2.4
Cc1ccc(CN2CC(C(=O)Nc3nnc(SCc4c(Cl)cccc4Cl)s3)CC2=O)cc1 (stereo not given)	i	97.9	nt	1.01	nt	-2.1	0.5
COC(=O)c1cn(NC(=O)C2CCC(C)CC2)c(=O)c2ccccc12 (stereo not given)	i	103.2	9.1	0.88	75.5	2.8	-0.6
COc1ccc(-n2c(=O)c3c4c(sc3n3c(C)nnc23)CCCC4)cc1	nt	nt	-62.2	nt	101.3	2.1	-0.2
CC(C)C(=O)Nc1ccc(C(=O)NNC(=S)NC(=O)c2cccs2)cc1	i	100.3	-13.3	0.9	133.8	3.8	-1.4
Cc1cccc(NC(=O)C2CCN(S(=O)(=O)c3cccc4nsnc34)CC2)n1	nt	86.5	0.0	nt	95.6	1.4	-0.9
O=C(CN1CCN(CC(=O)Nc2ccccc2Cl)CC1)Nc1ccc2c(c1)OCCO2	i	86.5	21.4	0.99	90.5	11.4	-2.4
COc1cc(C(=O)OCC(C)=O)ccc1OCc1c(C)noc1C	i	109.7	-30.0	0.84	43.4	-4.0	nt
CCCNC(=O)[C@H](C)NC(=O)c1ccc(Br)cc1	i	99.4	nt	0.97	nt	-5.2	nt
Oc1[nH]c2ccccc2c1N=Nc1ncnc2c1oc1ccccc12	i	100.7	nt	1.19	nt	nt	nt
CCc1nc2sc(C(C)=O)c(N)c2c2c1CCCC2	i	96.5	nt	0.86	nt	nt	nt
Cc1cc(C)cc(NC(=O)c2cc(C)n(Cc3cccs3)c2C)c1	i	97.0	nt	0.74	nt	nt	nt
CC(=O)c1ccc(OCCOc2ccc(Cl)c3cccnc23)cc1	i	99.5	nt	0.98	nt	0.3	nt
Cc1ccc(-n2ncc3c(=O)n(-c4ccc(C)c(C)c4)c(-c4ccco4)nc32)cc1	i	102.4	13.3	0.83	129.0	-6.9	0.2
CCN(CC)c1nc(SCC(=O)O)nc(N(CC)CC)n1	i	102.1	3.7	0.9	129.7	-7.7	-1.5
COC(=O)C1C(=O)C2=C(CC1C)NC(C)=C(C(=O)OC(C)C)C2c1ccc(OC)c(O)c1 (stereo not given)	i	99.5	27.3	1.05	56.8	11.9	-1.4
O=C(Nc1cccc(S(=O)(=O)N2CCCC2)c1)c1ccc2c(c1)OCO2	i	101.0	nt	1.07	nt	-1.6	-1.7
Cc1ccc(S(=O)(=O)N2CCCCC2)cc1C(=O)OCC(=O)NC(=O)NC12CC3CC(CC(C3)C1)C2	i	101.7	-15.4	0.85	131.2	2.5	-0.8
CCCS(=O)(=O)N1CCC(C(=O)NCCCN(C)Cc2ccccc2)CC1	i	165.0	nt	0.98	nt	0.8	-3.8
Cc1cccc(NC(=O)Cn2nnc(C(=O)NCc3cccs3)c2N)c1C	i	101.3	50.0	1.07	86.0	-5.9	-2.6
COc1ccc(CCNC(=O)CCN2C(=O)C(C)Oc3ccc(C)cc32)cc1OC (stereo not given)	i	94.0	-26.9	0.88	104.5	2.8	0.8
CNCc1ccccc1OCc1ccc(F)cc1	i	99.8	nt	0.89	nt	-4.0	nt
Cc1c(O)c(S(=O)c2ccccc2)c(=O)n(-c2ccccc2)c1-c1ccccc1 (stereo not given)	i	107.2	-15.4	0.89	126.2	2.6	0.1
COc1ccccc1N1CCN(C(=O)c2oc3cc(C)cc(C)c3c2C)CC1	i	98.7	60.0	0.98	88.7	-5.1	-4.2
Cc1cc(C)n2cc(COc3ccccc3)nc2n1	i	108.2	25.0	1.03	145.3	-3.6	0.7
CC(C)CN1CCN(Cc2ccc(C#CC(C)(C)O)cc2)CC1CCO (stereo not given)	i	103.2	nt	0.91	nt	-3.8	nt
CN1C(=O)S/C(=C\c2ccccc2OCc2ccc(C(=O)O)cc2)C1=O	i	115.9	53.3	0.87	100.9	-6.1	nt
COc1cccc(NC(=O)c2cccs2)c1	i	101.4	25.0	0.86	58.8	-3.5	-0.2
COc1ccc(S(=O)(=O)N2CCC(C(=O)Nc3cccc(Cl)c3)CC2)cc1OC	i	73.0	-66.7	0.91	115.4	-2.6	-0.8
Cc1onc(-c2ccccc2)c1C(=O)O/N=C(\N)c1ccc([N+](=O)[O-])o1	i	97.1	nt	0.81	nt	nt	nt
CCn1c(SCC(=O)Nc2nc(-c3ccccc3)cs2)nnc1-c1ccccc1O	i	102.8	-120.0	0.91	94.8	-10.9	-1.4
Cc1nnc(SC(C)C#N)n1-c1ccccc1 (stereo not given)	i	111.3	nt	1.1	nt	3.0	nt
COCCn1nnnc1C(C(C)C)N(Cc1cccnc1)Cc1ccccc1Cl (stereo not given)	i	100.2	-120.0	0.94	100.0	-5.3	-1.9
COc1cc(OC)cc(-c2nc3ccccc3c(=O)o2)c1	i	99.5	-231.2	0.93	111.4	-7.3	-2.1

Bioassay records: PubChem, several laboratories
